High-throughput results (PubChem)
KinaseGlo FLuc = counter-screen: inhibitors of Kinase-Glo firefly luciferase. actives 0.28% (n = 200,000). Potency, µM (highest dose often 38.3 µM), for inactives: at the highest dose activity change, negative = inhibition, hits mostly inhibitors. Kinase-Glo luciferase, ATP luminescence, 8 min. Q27757; further: potency means the concentration at half of the fitted maximal effect; on the % scale 0 is the no-effect control and ±100 the full control effect; nearly all actives have a fitted effect of over 60% in size
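Compound is pinned into ATP-containing buffer (10 uM ATP, imidazole pH 7.2, 7 mM MgCl2). Kinase-Glo luciferase reagent is then added. Light output is recorded following an 8-min room-temperature incubation.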
HTT aggregate = mutant huntingtin aggregation inhibition | PC12 HttQ103-GFP aggregates, Acumen cytometry, 40 h | Potency, µM (series often up to 46.1 µM), inactives show at the highest dose activity change, negative = inhibition, most hits filed as inhibitors | actives 1.1% (n = 220,000) | AID 1688; further: potency means the concentration at half of the fitted maximal effect; on the % scale 0 is the no-effect control and ±100 the full control effect; nearly all actives have a fitted effect of over 60% in size
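Huntingtin Q103 exon 1–GFP aggregates in induced PC12 cells (100 nM tebufenozide) were quantified by cytometry from lysates, with compounds dosed in titration.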
LMNA splice mod = LMNA splicing modulation. HeLa LMNA splicing GFP/RFP minigene ratio, 48 h. Potency, µM (highest dose often 46.1 µM), for the others: top-dose ratio change, negative = inhibition, hits mostly inhibitors. actives 0.01% (n = 200,000). AID 1487; active means well fitted inhibition curve with a large enough effect in the signal ratio, with a control signal flat, not every such curve was filed as active; inconclusive means small, poorly fitted or top-dose-only effect, or effect the other way, or a change in a side signal; the % refers to the signal ratio; further: potency means the concentration at half of the fitted maximal effect; on the % scale 0 is the no-effect control and ±100 the full control effect
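S3 HeLa stable clones carrying a lamin A-EGFP splicing minigene plus DsRed2 were seeded at 600 cells/well in Opti-MEM with 2% FBS, pin-dosed and incubated 48 h at 37°C. Acumen cytometry (488 nm) gave the GFP/RFP total-intensity ratio.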
IMPase Li cell = cell-permeable IMPase inhibitors with lithium potentiation | CHO-M1 cells, IP1 TR-FRET (IP-One), carbachol + lithium | Potency, µM (highest dose often 59.4 µM), inactives show at the highest dose activity, negative = IMPase inhibition, hits mostly inhibitors | actives 0.35% (n = 210,000) | AID 1457;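 further: IP1 builds up when IMPase is blocked and the TR-FRET signal falls; potency means the concentration at half of the fitted maximal effect; plate controls were basal vehicle for no effect and high inhibitor control for full effect; nearly all actives have a fitted effect of over 50% in size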
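Readout is a homogeneous TR-FRET IP1 immunoassay (Ex 320, Em 665 and 620), where raised cytosolic IP1 lowers signal. Cells were CHO-M1 treated 30 min at 37C with test compounds plus a little lithium; AC50 values came from Hill-equation fitting.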
Epigenetic reg = regulators of epigenetic silencing causing reporter derepression in mouse cells; AID 1865; murine LDR cells, GFP reporter derepression, 30 h; actives 0.2% (n = 280,000); Potency, µM (top dose mostly 53.9 µM), inactives show top-dose GFP activation, actives largely listed as activators; further: potency means the concentration at half of the fitted maximal effect; % of control where 0% means no effect; nearly all actives have a fitted effect of over 60% in size
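Murine LDR cells bearing a silenced CMV-driven GFP reporter were exposed to compound for 30 h at 37 C. After PBS washes, GFP-positive cells (20-120 um objects) counted by laser-scanning microplate cytometry.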
CBFb RUNX1 block = inhibitors of human CBF-beta and RUNX1 interaction | AlphaScreen CBFb-His/RUNX1-biotin binding, biochemical | Potency, µM (top dose mostly 59.8 µM), for the others: at the top dose activity, negative = inhibition, most hits filed as inhibitors | 230,000 tested, under 10 active; further: % of control where 0% means no effect
Target sequence (Q01196 whole entry, looked up): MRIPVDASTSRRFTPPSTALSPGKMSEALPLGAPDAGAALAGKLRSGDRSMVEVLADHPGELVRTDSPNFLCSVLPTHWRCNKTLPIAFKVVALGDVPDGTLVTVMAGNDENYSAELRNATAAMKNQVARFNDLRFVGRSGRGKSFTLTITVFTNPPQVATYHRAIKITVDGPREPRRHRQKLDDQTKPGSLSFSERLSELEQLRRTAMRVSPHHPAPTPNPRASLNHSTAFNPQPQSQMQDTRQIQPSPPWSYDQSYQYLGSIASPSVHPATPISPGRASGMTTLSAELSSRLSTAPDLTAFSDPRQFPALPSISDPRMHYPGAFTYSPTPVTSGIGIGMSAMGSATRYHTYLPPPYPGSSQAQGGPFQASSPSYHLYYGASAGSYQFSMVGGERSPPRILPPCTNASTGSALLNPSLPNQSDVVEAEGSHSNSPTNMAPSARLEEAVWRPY
Target sequence (Q13951 whole entry, looked up): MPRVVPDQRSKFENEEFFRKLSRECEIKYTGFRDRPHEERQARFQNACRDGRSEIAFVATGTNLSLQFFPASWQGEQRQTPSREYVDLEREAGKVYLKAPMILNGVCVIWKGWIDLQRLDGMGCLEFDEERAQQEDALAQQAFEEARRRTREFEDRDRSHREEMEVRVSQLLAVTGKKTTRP
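Bead-based AlphaScreen assay; binding partners His-tagged CBF-beta and biotinylated RUNX1 at 30 nM each. Compound exposure 15 min after a 20-min protein preincubation; bead step 90 min; all steps at room temperature.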
Starred values were filed as active, the others as inactive; u = inconclusive; x = not tested or not shown; [ ] = remark or other dose. Unless noted, the call rests on the fitted dose curve; in most records, active means well fitted curve in the direction sought with a large enough effect; inconclusive means small, poorly fitted or top-dose-only effect, or another doubt; inactive means no such curve, though single readings can be large; an effect the other way counts as inactive or inconclusive. The list is partial, so the mix of outcomes need not match the whole.

SMILES | KinaseGlo FLuc | HTT aggregate | LMNA splice mod | IMPase Li cell | Epigenetic reg | CBFb RUNX1 block
CCCSc1nc(NCc2ccco2)c2c3c(sc2n1)COC(C)(CC)C3 (stereo not drawn) | 0% | 0% | 12% | 24%[38.3 µM] | -1.1% | 0%
N#Cc1c(SCC(=O)O)nc(N2CCOCC2)c2c1CCCC2 | x | -1%[9.22 µM] | x | x | -0.9% | 5%
C1CN(c2nc3nonc3n3nnnc23)CCO1 | -6% | 28% | 1% | 3%[38.3 µM] | 0.4% | 4%
COCCn1nnnc1C(c1cc2cccc(C)c2[nH]c1=O)N1CCN(c2ccccc2F)CC1 (stereo not drawn) | -2% | -2% | 11% | 14%[38.3 µM] | -1.0% | -2%
Cc1ccc2nc(C)c3c(c2c1)OC(C(C)(Cl)Br)C3 (stereo not drawn) | x | -2%[9.22 µM] | u | x | 6.4% | 12%
C#CCn1c(=NC(=O)CSCC(=O)N2CCOCC2)sc2ccccc21 | -2% | -9% | -6% | 4% | 0.0% | 3%
CCOC(=O)c1cc(C#N)c(N2CCCC2)nc1-c1ccccc1 | 7% | -16% | u | -5%[38.3 µM] | -1.8% | u
CC(C)(C)n1nnnc1C(c1ccc(C#N)cc1)N1CCCC2(CCCCC2)C1 (stereo not drawn) | -6% | 12% | 15% | 17%[38.3 µM] | -1.2% | 5%
CC(C(=O)NCc1ccccc1)N(CCN1CCOCC1)C(=O)c1snc(C(N)=O)c1N (stereo not drawn) | 2% | 11% | 7% | -6%[38.3 µM] | -5.8% | 5%
NC(=O)c1sc(-c2ccsc2)cc1NS(=O)(=O)c1ccc(C(F)(F)F)cc1 | x | 9%[9.22 µM] | x | x | -1.1% | -14%
O=C(O)c1ccc(NS(=O)(=O)c2ccc3c(c2)OCCO3)cc1 | 1% | 4% | -4% | -10%[38.3 µM] | -1.4% | 3%
O=C1CCCC2=C1C(c1ccc(O)c(Br)c1)C1=C(CCCC1=O)N2c1ccccc1 | -1% | -18% | -21%[46 µM] | 9% | -0.4% | -3%
c1ccc(-n2c(SCC3CCCCO3)nnc2-c2cccs2)cc1 (stereo not drawn) | x | 3% | 3% | x | 0.0% | 1%
Cc1cc(NC(=O)CSc2nnc(-c3c[nH]c4ccccc34)n2-c2ccc(Cl)cc2)no1 | 17% | -15% | 4% | 28%[38.3 µM] | -2.3% | 0%
CC1CCCN(CCOc2ccc3ccccc3c2Br)C1 (stereo not drawn) | 3% | -2% | -24%[46 µM] | -4% | -0.1% | 0%
Cc1ccc(-c2nc3ccccc3s2)cc1NC(=O)c1ccc2c(c1)OCO2 | 0% | -14% | -3% | 11µM* | -1.1% | 4%
CC1CCCC(C)N1C(=O)CSc1nnc(C2CCCCC2)o1 (stereo not drawn) | 0% | -10% | 4% | -3%[38.3 µM] | 0.7% | 14%
Cc1nc2sc(C(c3ccco3)N3CCN(C(c4ccccc4)c4ccccc4)CC3)c(O)n2n1 (stereo not drawn) | 15% | -16% | u | 45%[activator][38.3 µM] | 0.0% | 2%
CCOC(=O)c1cccc(NC(=O)N2CCOCC2)c1 | 5% | -3%[9.22 µM] | 18%[46 µM] | 0% | -4.7% | 6%
O=C(Nc1ccccc1)Nc1nnc(-c2ccccc2)o1 | 2% | u | 13% | -11%[38.3 µM] | 1.3% | -2%
CC1CCN(CCCn2c(SCC(=O)Nc3ccccc3Cl)nc3ccccc3c2=O)CC1 | 2% | 2% | x | 7% | 3.5% | -1%
CCOC(=O)/C(=N/O)C1=NC(C)(C)Cc2cc(C)c(C)cc21 | -5% | -2%[9.22 µM] | -6%[46 µM] | 5% | 2.1% | 5%
Cc1ccc(OCC(=O)N2CCN(c3nnc(-c4ccccc4)c4ccccc34)CC2)cc1 | -2% | u | -3% | 11%[38.3 µM] | -0.7% | -1%
Clc1cccc(-c2cc3nc4c(c(N5CCOCC5)n3n2)CCCC4)c1 | -4% | u | u | 23%[38.3 µM] | 1.0% | 23%
Cc1ccc(-c2cc(C(F)F)n3ncc(C(=O)N4CCCCC4c4cccnc4)c3n2)cc1 (stereo not drawn) | -2% | 6%[9.22 µM] | x | -8% | 1.6% | -3%
Nc1nc(N)nc(-c2ccccc2O)n1 | -4% | -6% | 0% | -18%[38.3 µM] | -1.1% | 5%
Cn1c(Sc2ccc(Br)cc2)c(C=O)c2ccccc21 | -4% | 10µM* | u | -11%[38.3 µM] | 0.0% | 17%
CC(C(=O)NC(=O)NC1CCCCC1)N1CCN(C(c2ccccc2)c2ccccc2)CC1 (stereo not drawn) | 17% | u | -4% | 39%[activator][38.3 µM] | 1.7% | -2%
COc1ccc(N2C3=C(C(=O)CC(C)(C)C3)C(c3ccccc3OC)C3=C2CC(C)(C)CC3=O)cc1 | x | 0%[9.22 µM] | x | x | -1.9% | 13%
Cc1cc(C)cc(N(C(=O)c2ccccn2)C(C(=O)NC2CCCCC2)c2cccs2)c1 (stereo not drawn) | -1% | -2% | 3% | -2%[38.3 µM] | -1.9% | -7%
COc1cccc(C2=NOC(C(=O)NCc3ccc(F)cc3)C2)c1 (stereo not drawn) | -2% | 5% | 10% | 2%[38.3 µM] | -1.2% | 5%
CCc1c(C#N)c(SCCC(=O)Nc2cccc(OC)c2)nc2c1C(=O)CC(C)(C)C2 | 14% | 16% | u | 25%[38.3 µM] | -0.8% | 11%
Cc1cccc(COCC(CC(C)C)N2CCN(C(=O)c3ccc(C(C)(C)C)cc3)CCC2=O)c1 (stereo not drawn) | -4% | -21% | -8% | -6% | -2.6% | -13%
CCOc1ccc(C(=O)C(c2ccccc2)N2CCOCC2)cc1 (stereo not drawn) | 0% | -4% | -7% | 0%[38.3 µM] | -0.2% | -1%
CCC(=O)NC(=S)Nc1cccc(NC(=O)c2ccc(Cl)cc2Cl)c1 | 1% | 5% | 6% | -7%[38.3 µM] | 1.7% | 1%
CCCOc1ccc(C(O)C(CN2CCOCC2)c2ccccc2)cc1 (stereo not drawn) | -2% | 6% | 1% | 2%[38.3 µM] | -1.2% | 9%
CCOc1nc(NCc2ccco2)nc(Nc2ccc(OC)cc2)n1 | 0% | -29% | 3% | 45%[activator][38.3 µM] | -0.1% | -15%
O=C(Nc1cccc(Cl)c1)Nc1nnc(-c2ccccc2)o1 | 2% | 7% | -3% | -6%[38.3 µM] | 7.0% | -3%
CC(CCc1ccco1)NC(=O)c1cccc2c1C(=O)N(C1CCCCC1)C2 (stereo not drawn) | x | u | x | 16% | -0.2% | -9%
CC1(C)Cc2c(C#N)c(SCCC#N)nc(N3CCOCC3)c2CS1 | -3% | 4% | -5% | 11%[38.3 µM] | -7.9% | 8%

Given with two lines to a compound: 10 of the compounds above
Every second line gives: KinaseGlo FLuc | HTT aggregate | LMNA splice mod | IMPase Li cell | Epigenetic reg | CBFb RUNX1 block
CC1CCN(CCCn2c(SCC(=O)Nc3ccccc3Cl)nc3ccccc3c2=O)CC1
    2% | 2% | x | 7% | 3.5% | -1%
CCOC(=O)/C(=N/O)C1=NC(C)(C)Cc2cc(C)c(C)cc21
    -5% | -2%[9.22 µM] | -6%[46 µM] | 5% | 2.1% | 5%
Cc1ccc(OCC(=O)N2CCN(c3nnc(-c4ccccc4)c4ccccc34)CC2)cc1
    -2% | u | -3% | 11%[38.3 µM] | -0.7% | -1%
Clc1cccc(-c2cc3nc4c(c(N5CCOCC5)n3n2)CCCC4)c1
    -4% | u | u | 23%[38.3 µM] | 1.0% | 23%
Cc1ccc(-c2cc(C(F)F)n3ncc(C(=O)N4CCCCC4c4cccnc4)c3n2)cc1 (stereo not drawn)
    -2% | 6%[9.22 µM] | x | -8% | 1.6% | -3%
Nc1nc(N)nc(-c2ccccc2O)n1
    -4% | -6% | 0% | -18%[38.3 µM] | -1.1% | 5%
Cn1c(Sc2ccc(Br)cc2)c(C=O)c2ccccc21
    -4% | 10µM* | u | -11%[38.3 µM] | 0.0% | 17%
CC(C(=O)NC(=O)NC1CCCCC1)N1CCN(C(c2ccccc2)c2ccccc2)CC1 (stereo not drawn)
    17% | u | -4% | 39%[activator][38.3 µM] | 1.7% | -2%
COc1ccc(N2C3=C(C(=O)CC(C)(C)C3)C(c3ccccc3OC)C3=C2CC(C)(C)CC3=O)cc1
    x | 0%[9.22 µM] | x | x | -1.9% | 13%
Cc1cc(C)cc(N(C(=O)c2ccccn2)C(C(=O)NC2CCCCC2)c2cccs2)c1 (stereo not drawn)
    -1% | -2% | 3% | -2%[38.3 µM] | -1.9% | -7%

Later entries
SMILES | KinaseGlo FLuc | HTT aggregate | LMNA splice mod | IMPase Li cell | Epigenetic reg | CBFb RUNX1 block
COc1ccc(/C=C/c2nc(N)nc(-c3ccccc3O)n2)cc1 | -3% | 2% | -10% | 16% | 2.8% | 4%
O=C(CSc1nccn1-c1ccc(Cl)cc1)Nc1ccc2c(c1)OCO2 | 2% | -4% | u | 43%[activator][38.3 µM] | -2.2% | 2%
Cc1ccc(OCc2nnc(SCC(=O)Nc3ccc4c(c3)OCO4)n2C)cc1 | -2% | -7% | 13% | 11%[38.3 µM] | 0.0% | 2%
CCCCn1cnc2c(c(-c3ccccc3)c(-c3ccccc3)n2Cc2ccco2)c1=N | x | -1%[9.22 µM] | x | x | 0.4% | -6%
CN1C(=O)NC(c2ccc(O)cc2)C2=C1CN(c1ccc(O)cc1)C2=O (stereo not drawn) | 2% | 10% | -12%[46 µM] | -4% | -6.3% | 6%
COc1ccc(OC(=O)c2cccnc2)cc1 | 0% | -10%[1.84 µM] | -16% | 18%[38.3 µM] | -0.7% | 4%
O=C(COc1ccc(S(=O)(=O)NCc2ccccc2)cc1Cl)N1CCOCC1 | 4% | 13% | 1% | 19%[38.3 µM] | 0.9% | 0%
O=C(C1CCCN(CCCc2ccccc2)C1)N1CCCCC1 (stereo not drawn) | 4% | 10% | 8% | 26% | 0.0% | -2%
O=C(Nc1cccc(S(=O)(=O)NC2=NCCCCC2)c1)c1cccnc1Cl | x | 4%[9.22 µM] | 4%[46 µM] | x | 0.0% | 7%
O=C(Nc1ccc([N+](=O)[O-])cc1)c1cc(-c2ccccn2)nc2c(Cl)cccc12 | -1% | 14%[9.22 µM] | u | -20% | 1.6% | -1%
Cc1ccc(S(=O)(=O)N(CC(=O)N2CCc3ccccc3C2)c2cccc(Cl)c2)cc1 | -2% | -1% | u | 5%[38.3 µM] | u | 21%
Cn1c(=O)c2c(nc(N3CCN(c4ccccc4)CC3)n2CCCc2ccccc2)n(C)c1=O | 3% | -2% | 9% | 17%[38.3 µM] | 1.7% | 9%
CN1C(=O)C2(Nc3ccccc3-c3nc4ccccc4n32)c2ccccc21 (stereo not drawn) | 9% | 25% | -4% | -5%[38.3 µM] | 0.8% | 2%
Cc1ccc(CC2CC(=O)N(Cc3ccco3)C2=O)cc1 (stereo not drawn) | 2% | 2% | 20% | 6%[38.3 µM] | -6.2% | 1%
CCCC(=O)N1CCN(c2nc(CC(C)C)c3c(c2C#N)CCC3)CC1 | -2% | -15% | u | 9%[38.3 µM] | -2.6% | 11%
